Bioassay records from PubChem BioAssay.
2A StopGo: lowers the luciferase signal of an FMDV 2A StopGo reporter; human cells with a luciferase reporter of 2A StopGo recoding; control for the full effect not named in the record; Potency, µM (highest dose often 57.9 µM), without a hit: top-dose signal change, negative = less light; 1.2% of 410,000 active; active = well fitted falling curve with a large enough effect; inconclusive = small, poorly fitted or top-dose-only effect; inactive = no such curve, though single readings can be large or run the other way; tested in HEK293T cells; further: on the % scale 0 is the no-effect control and ±100 the full control effect; nearly all actives have a fitted effect of over 45% in size; luciferase light after 4 h
Marburg entry inh: inhibitors of Marburg virus binding or cell entry; Potency, µM (top dose mostly 37.8 µM), without a hit: at the highest dose activity change, negative = inhibition, most hits filed as inhibitors; Marburg virus pseudotyped entry inhibition, cell reporter; control for the full effect not named in the record; about a third of the inactives were read at about 46 µM; 1.8% of 300,000 active; AID 540276; active = well fitted inhibition curve with a large enough effect; inconclusive = small, poorly fitted or top-dose-only effect, or effect the other way; inactive = flat fitted curve, though single readings scatter; tested in HEK293 cells; about a fifth of its hits are not listed in these tables; further: on the % scale 0 is the no-effect control and ±100 the full control effect; luciferase read-out
SARS PLpro yeast: inhibitors of SARS-CoV papain-like protease in yeast | AID 485353 | S. cerevisiae expressing SARS-CoV PLpro, growth rescue; control for the full effect not named in the record | 0.19% of 330,000 active | Potency, µM (highest dose often 32.9 µM), for the others: at the top dose activity, positive = growth rescue; further: 0% is about no effect; nearly all actives have a fitted effect of over 55% in size; growth read by luminescence after 48 h
LASV entry inh: blocks Lassa virus binding to or entry into cells. 1.2% of 300,000 active. AID 540256. Lassa virus pseudotype entry inhibition, cell reporter; control for the full effect not named in the record. Potency, µM (titrated, usually from 37.9 µM), for inactives: at the highest dose activity change, negative = inhibition, most hits filed as inhibitors; active means well fitted inhibition curve with a large enough effect; inconclusive means small, poorly fitted or top-dose-only effect, or effect the other way; inactive means flat fitted curve, though single readings scatter; tested in HEK293 cells; further: on the % scale 0 is the no-effect control and ±100 the full control effect; nearly all actives have a fitted effect of over 50% in size; luciferase read-out
Cruzain noTriton: cruzain (T. cruzi) inhibition without detergent | P25779 | purified cruzain, Z-FR-AMC fluorescence, no detergent | Potency, µM, without a hit: max response, negative = inhibition, hits mostly inhibitors | AID 1476 | 2.3% of 200,000 active; active means well fitted curve in the direction sought with a large enough effect; inconclusive means small, poorly fitted or top-dose-only effect, or another doubt; inactive means no such curve, though single readings can be large; an effect the other way counts as inactive or inconclusive;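 further: plate controls were enzyme without inhibitor for no effect and buffer without enzyme for full effect; nearly all actives have a fitted effect of over 40% in size; top concentration of the series not given in the record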
Target sequence (P25779 123-467 limits assumed): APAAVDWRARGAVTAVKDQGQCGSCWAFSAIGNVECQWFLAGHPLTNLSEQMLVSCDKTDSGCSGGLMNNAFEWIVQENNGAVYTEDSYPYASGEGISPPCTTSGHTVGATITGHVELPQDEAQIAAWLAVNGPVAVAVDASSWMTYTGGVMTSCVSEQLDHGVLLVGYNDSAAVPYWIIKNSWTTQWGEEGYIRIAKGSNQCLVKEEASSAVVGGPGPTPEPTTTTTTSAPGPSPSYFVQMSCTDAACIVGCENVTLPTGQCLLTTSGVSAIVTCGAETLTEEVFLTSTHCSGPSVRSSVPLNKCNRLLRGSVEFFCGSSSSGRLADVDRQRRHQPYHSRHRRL
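Purified cruzain at 1.5 nM, pre-incubated 15 min with compound at room temperature in 100 mM sodium acetate pH 5.5, 5 mM DTT, 0.00005% Triton X-100. Reaction started with 2 uM Z-FR-AMC; AMC fluorescence increase over 60 s gives rate.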
RE007 growth inh: less growth of the S. pombe RE007 Vpr strain | Potency, µM (doses to about 92.2 µM), for inactives: at the highest dose activity change, negative = less growth | 0.21% of 360,000 active | AID 651644 | S. pombe RE007 Vpr strain, BacTiter-Glo ATP luminescence, 24 h; control for the full effect not named in the record; active = well fitted falling curve with a large enough effect; inconclusive = small, poorly fitted or top-dose-only effect; inactive = no such curve, though single readings can be large or run the other way;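 further: on the % scale 0 is the no-effect control and ±100 the full control effect; nearly all actives have a fitted effect of over 50% in size; the assay follows cell death caused by Vpr and the record does not say whether a fall means rescue or toxicity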
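Fission yeast strain RE007, carrying one chromosomally integrated HIV-1 vpr copy, was seeded at OD 0.01 in PMG+AL medium with 23 nL pinned compound. After 24 h at 30 °C and 99% humidity, viability was read by BacTiter-Glo luminescence.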
Cruzain inh Det: cruzain (T. cruzi) inhibition with detergent; Potency, µM, without a hit: max response, negative = inhibition, actives largely listed as inhibitors; purified cruzain, Z-FR-AMC fluorescence, 0.01% Triton; 0.43% of 200,000 active; active means well fitted curve in the direction sought with a large enough effect; inconclusive means small, poorly fitted or top-dose-only effect, or another doubt; inactive means no such curve, though single readings can be large; an effect the other way counts as inactive or inconclusive;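 further: plate controls were neutral wells for no effect and buffer without enzyme for full effect; nearly all actives have a fitted effect of over 40% in size; top concentration of the series not given in the record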
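Read-out: AMC fluorescence (360 nm excitation, 450 nm emission), four reads over 2 min, first-to-third difference used. Conditions: cruzain 1.5 nM, Z-FR-AMC 2 uM, pH 5.5 acetate, 5 mM DTT, 0.01% Triton X-100.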
NS1 inh: inhibitors of influenza NS1 protein function; S. cerevisiae slowed by influenza A NS1, growth recovery by OD600; Potency, µM (doses to about 46.1 µM), inactives show at the highest dose activity, positive = more growth; 0.4% of 270,000 active; AID 2326; further: actives are rising curves; nearly all actives have a fitted effect of over 50% in size
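S. cerevisiae expressing influenza A NS1, grown in glucose, washed, then diluted 1:100 into pH 6.0 -URA galactose medium with 23 nl compound. Growth recovery read as OD600; NS1-free strain serves as control.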
Numbers without * were called inactive; ? = inconclusive; / = no result given; & = joins results of further samples; [ ] = dose if it differs, or a comment. Unless noted, the call rests on the fitted dose curve; in most records, active means well fitted rising curve with a large enough effect; inconclusive means small, poorly fitted or top-dose-only effect; inactive means no such curve, though single readings can be large or run the other way. Potency means the concentration at half of the fitted maximal effect.

SMILES	2A StopGo	Marburg entry inh	SARS PLpro yeast	LASV entry inh	Cruzain noTriton	RE007 growth inh	Cruzain inh Det	NS1 inh
Nc1nc(NCc2ccccc2Cl)n(-c2ccccc2)n1	-4.8%	6.4%	-8.1%	3.1%	/	-6.7%	/	-23.4%
CCOC(=O)N/N=C/c1ccc(C)o1	26.9%	18.7%	2.9%	7.4%	-3.7%	10.6%	1.8%	8.2%
COCc1cc(N2CCCCC2)nc(-c2ccccc2)n1	-8.3%	?	-2.6%	-24.8%	/	0.1%	/	/
O=C1SCCC1NS(=O)(=O)c1ccc([N+](=O)[O-])cc1 (configuration not stated)	13.0%	-5.4%[46.1 µM]	-1.6%	14.8%[46.1 µM]	/	-25.5%	/	4.9%
Cc1ccc(OC(=O)c2cc(-c3ccc(Cl)cc3)on2)c(C)c1	-19.5%	-15.6%[46.1 µM]	/	17.1%[46.1 µM]	0.8%	/	-0.9%	/
Cc1ccc(CN2CCCn3nc(C(=O)NCCc4ccc(Cl)cc4)cc3C2=O)cc1	-15.9%	/	/	1.5%[46.1 µM]	5.3%	/	-3.2%	/
COc1ccc(NC(=O)C2CCCN2S(=O)(=O)c2ccc3c(c2)CCC(=O)N3)cc1 (configuration not stated)	-24.5%	-5.5%	-5.0%	/	-2.9%	7.7%	3.0%	-3.6%
CCOC(=O)c1cccc(NC(=O)C2CCCN(S(=O)(=O)c3cnc[nH]3)C2)c1 (configuration not stated)	30.0%	/	19.6%	/	-6.7%	-1.0%	3.0%	4.5%
COc1cc(SC)ccc1C(=O)OCC(=O)NCC(C)C	35.7%[activator]	13.9%[46.1 µM]	-0.2%	10.2%	/	-8.3%	/	/
COc1ccc(N2CCN(C3CCCN(C(=O)CN4CCOC4=O)C3)CC2)cc1 (configuration not stated)	-7.9%	-4.8%	-4.3%	1.9%	/	-9.6%	/	4.9%
Cc1cc(C(=O)N/N=C/c2cccc([N+](=O)[O-])c2O)n[nH]1	23.9%	6.4%	-21.5%	22.3%	-0.5%	-22.5%	-10.4%	-29.7%
COC(=O)[C@H]1[C@H](C(=O)OC)[C@@H](C(=O)OC)N(c2ccc(OC)cc2)[C@@H]1C(=O)OC	-22.6%	?	0.5%	-0.4%	-3.7%	8.9%	-0.9%	8.4%
O=C(NC1CCCC1)c1ccc(Cl)s1	-13.6%	-0.6%[46.1 µM]	-6.8%	8.9%[46.1 µM]	/	-14.8%	/	-11.4%
CCn1c(SCC(=O)NNC(=O)Cc2ccccc2)nnc1-c1ccncc1	4.9%	?	1.8%	-4.9%	/	-21.0%	/	0.3%
Clc1ccc(OCCOCCOc2cccc3cccnc23)c(Br)c1	-22.2%	-19.2%	6.6%	0.0%	?	?	-9.4%	-10.1%
Cc1ccc(S(=O)(=O)c2nc(-c3ccc(F)cc3)oc2N2CCOCC2)cc1	29.2%	?	6.2%	?	/	7.7%	/	4.7%
Cc1ccc(NC(=O)CNC(=O)OCc2ccccc2)cc1C	4.0%	-6.6%[46.1 µM]	0.2%	?	/	1.1%	/	-8.1%
CCc1ccc(NC(=O)CSc2nc3n[nH]c(C)c3c(=N)n2-c2ccccc2C)cc1	0.0%	/	/	?	-24.7%	/	-1.5%	/
CC1CCN(c2c(NCC3CCC(C(=O)N4CCCC(C)C4)CC3)c(=O)c2=O)CC1 (configuration not stated)	-4.5%	-1.2%	1.4%	/	-3.6%	-6.0%	-0.7%	2.4%
COc1ccc(NC(=O)c2nc(S(=O)(=O)Cc3ccc(C)cc3)ncc2Cl)cc1	?	?	/	?	-3.1%	/	-4.4%	/
COc1ccccc1CNC(=O)CC(NS(=O)(=O)c1ccc(C)cc1)c1ccco1 (configuration not stated)	11.0%	25.1%	-5.1%	-9.8%	-6.1%	4.1%	1.0%	0.8%
CCc1nnc(NC(=O)CSc2nnc(C(C)NC(=O)c3ccccc3)n2C)s1 (configuration not stated)	2.2%	-25.2%[46.1 µM]	0.8%	-3.2%[46.1 µM]	/	-15.5%	/	-2.5%
Cc1ccc(NCC(O)Cn2cnc3c2c(=O)n(C)c(=O)n3C)cc1 (configuration not stated)	-13.5%	-15.7%	0.6%	10.9%	/	12.0%	/	3.4%
CC(=O)NC(=O)NC1CSCC1OC(C)=O (configuration not stated)	-16.7%	0.3%	1.4%	10.7%	0.4%	12.4%	-2.6%	1.3%
CC(C)(C)NC(=O)NC(=O)COc1ccccn1	-17.7%	12.0%[46.1 µM]	5.3%	-1.7%	-6.3%	-3.3%	-2.2%	0.5%
O=C(CCCc1ccccc1)NCCc1ccc(F)cc1	33.4%[activator]	?	7.9%	8.3%	/	-11.0%	/	-28.7%
CCCn1nc2cc(C(=O)NCc3ccc(OC)cc3)ccc2c1OCC	11.7%	/	4.3%	/	5.4%	0.9%	-0.9%	3.6%
CC(C)(C)OC(=O)N1CCCC(C(=O)Nc2cccc(C(=O)N3CCCC3)c2)C1 (configuration not stated)	-14.7%	/	7.7%	?	/	-1.5%	/	/
Cc1ccc(S(=O)(=O)N2CCN(C(=O)COC(=O)C3CCC3)CC2)cc1	-11.7%	4.7%[46.1 µM]	-0.1%	-2.8%	/	27.2%	/	/
COC(=O)c1ccccc1NC(=O)Nc1cnccn1	-19.8%	1.2%	1.6%	-7.0%	-7.9%	-10.4%[3.69 µM]	4.6%	-13.9%
Cc1cc(C)c(C(=O)COC(=O)CCNS(=O)(=O)c2c(Cl)cccc2Cl)cc1C	-6.1%	22.3%	3.5%	?	5.5%	1.2%	-3.6%	?
C/C(=N\NC(=O)CNC(=O)c1ccc(Br)cc1)c1ccco1	-29.7%	/	?	/	/	-10.4%	/	-10.3%
Cc1ccc([N+](=O)[O-])c(OCCN2CCc3ccccc3C2)c1	-3.2%	/	0.2%	/	/	-16.4%	/	-21.6%
CCOc1cc(/C=C2\CCCC(C(=O)C(F)(F)F)=C2O)ccc1O	26.4%	23.1%	-3.1%	6.3%	-6.0%	?	-13.9%	-13.8%
COc1cccc2cc(-c3nc(-c4cccs4)no3)c(=O)oc12	25.9%	?	/	16.6%[46.1 µM]	-3.8%	/	-0.1%	/
COC(=O)c1ccc(COC(=O)c2ccc(CS(=O)(=O)c3ccc(C)cc3)cc2)cc1	4.9%	4.4%	-3.9%	-3.7%	25.1µM*	9.3%	-1.8%	-7.2%
COc1ccc(C2Nc3ccccc3C(=O)N2c2ccc(C)cc2)cc1Cn1nnc2ccccc21 (configuration not stated)	/	?	2.9%	?	?	2.8%	-11.5%	21.7%
Cc1ccc(C)c(N2CCN(c3cc(C)nc4c(-c5ccc(Cl)cc5)c(C)nn34)CC2)c1	23.4%	7.2%[46.1 µM]	/	2.4%[46.1 µM]	-2.4%	/	-1.5%	/
O=C(/C=C/c1cccc(F)c1)Nc1cc(S(=O)(=O)N2CCOCC2)ccc1Cl	?	-34.6%	-0.8%	?	/	12.2%	/	/
CCN1CCN(Cc2cccc(Oc3ccccc3)c2)CC1	/	?	-5.3%	?	-13.2%	-0.1%	4.7%	0.4%
Cc1nn(CC(=O)Nc2ccccn2)c(=O)c2ccccc12	7.8%	-8.6%	1.1%	0.0%	-2.3%	26.3%	1.0%	-2.3%
O=C(CSc1nc2ccccc2n1CC(=O)Nc1ccc(F)cc1F)Nc1ccc(F)cc1	-10.9%	/	/	-1.3%[46.1 µM]	-3.5%	/	-3.1%	/
CCN(CC)S(=O)(=O)c1cccc(C(=O)N2CCCCC2)c1	6.6%	6.4%	1.8%	6.0%	5.6%	-8.1%	-0.7%	2.6%
Nc1cc2c(cc1Br)-c1ccccc1C2=NO	42.6%[activator]	?	/	11.1%	/	20.1%	/	/
CCc1ccc(NC(=O)Cn2nnc(C(=O)NCc3ccc(OC)cc3)c2N)cc1	-14.4%	/	-1.4%	/	/	-7.5%	/	12.4%
Cc1ccc(OCCn2cc(C(=S)N3CCCC3)c3ccccc32)cc1C	-17.5%	3.16µM*	-0.5%	2.82µM*	?	-14.0%	2.8%	15.8%
C=CCn1c(O)c(N=NC(=S)Nc2ccccc2C)c2cc(S(=O)(=O)N3CCOCC3)ccc21	-25.7%	?	-4.3%	?	2.6%	18.2%	-4.7%	12.6µM*
O=C1CC(=O)N(c2ccccc2F)C(=O)N1	-11.3%	/	-0.5%	/	/	-4.2%	/	7.2%
CC(NC(=O)c1nn(C)c2c1CS(=O)(=O)c1ccccc1-2)c1ccccc1 (configuration not stated)	-2.2%	/	15.6%	/	/	-5.9%	/	5.8%
O=c1cc(CO)oc(CN2CCC(Cc3ccccc3)CC2)c1O	-16.0%	2.4%	-1.8%	?	-8.6%	-10.4%	2.4%	7.8%
O=C(COC(=O)c1ccccc1NC(=O)c1ccco1)NC1CC1	-1.7%	/	1.6%	/	/	2.9%	/	4.8%
Cn1c(=O)[nH]c2nc[nH]c2c1=O	-12.9%&-4.9%	/	/	/	-3.1%	7.6%[18.4 µM]	5.5%	/
COC(=O)CNC(c1ccccc1)c1cc(Br)ccc1NC(=O)c1cc(OC)c(OC)c(OC)c1 (configuration not stated)	?	/	/	?	?	/	-7.2%	/
N#CC1(NC(=O)COC(=O)c2nc(Cl)ccc2Cl)CCCCC1	-9.0%	9.1%	6.7%	-4.0%	/	3.5%	/	/
CNC(=S)N(Cc1cccs1)Cc1cc2ccc(OC)cc2[nH]c1=O	?	?	18.1%	4.1%	10.6%	26.8%	-5.0%	9.5%
CCCC(=O)Nc1nnc(COC)s1	19.5%	-8.6%[46.1 µM]	4.8%	6.5%	4.6%	-3.0%	-1.1%	2.1%
COCCn1nnnc1CN(Cc1cccnc1)Cc1cc2cc(OC)ccc2[nH]c1=O	5.6%	23.1%&23.1%	-5.0%	11.1%	-15.3%	-15.1%	2.3%	0.5%
